N370S GC mod: qHTS Assay for Inhibitors and Activators of N370S glucocerebrosidase as a Potential Chaperone Treatment of Gaucher Disease; actives 0.092% (n = 330,000); Lysosomal acid glucosylceramidase (Homo sapiens), P04062; Potency, µM (highest dose often 59.4 µM), without a hit: at the top dose activity change, negative = inhibition, usual class: inhibitors; AID 2101, 2009; N370S GC spleen homogenate, 4MU-glucoside fluorescence;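 further: 0% = full enzyme activity and -100% = no enzyme basal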
TDP1 cell CPT: qHTS for Inhibitors of human tyrosyl-DNA phosphodiesterase 1 (TDP1): qHTS in cells in presence of CPT | chicken DT40 Tdp1-/-;hTDP1 cells + 20 nM CPT, ATP luminescence, 48 h | Potency, µM (titrated, usually from 46.2 µM), inactives show at the top dose activity change, negative = growth inhibition, usual class: inhibitors | actives 12% (n = 420,000) | AID 686979, 2013; further: nearly all actives have a fitted effect of over 55% in size
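Chicken DT40 Tdp1-/- cells stably complemented with human TDP1 were seeded at 400 cells/well in medium containing 20 nM camptothecin, exposed to pin-transferred compounds, and grown at 37 °C for at least 48 hr. Viability was read as ATP luminescence.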
Active calls of the source: *; ? = inconclusive; / = no result given; & = joins results of further samples; [ ] = another dose, or the depositor's remark. The call rests on the fitted dose curve; in most records, active means well fitted curve in the direction sought with a large enough effect; inconclusive means small, poorly fitted or top-dose-only effect, or another doubt; inactive means no such curve, though single readings can be large; an effect the other way counts as inactive or inconclusive. Unless noted, on the % scale 0 is the no-effect control and ±100 the full control effect; potency means the concentration at half of the fitted maximal effect.

SMILES | N370S GC mod | TDP1 cell CPT
CC(Oc1ccc2c3c(c(=O)oc2c1)CCCC3)C(=O)NCCCn1ccnc1 (stereo not given) | -5% | -18%
Cc1ccc(CC(=O)Nc2nccs2)cc1C | 2% | -4%
COc1cc(CO)cc(Br)c1OCc1cccnc1 | -4% | -1%
O=C(NCc1ccco1)C1CCCN(c2ncnc3c2nc2n3CCCCC2)C1 (stereo not given) | 15% | ?
O=C(c1ccco1)N1CCc2ccccc21 | 5% | -6%
CS(=O)(=O)c1cccc(S(=O)(=O)N2CCCCCC2)c1 | 2% | 2%
CCOC(=O)C1CCCN(S(=O)(=O)c2ccc(NC(C)=O)cc2)C1 (stereo not given) | -14% | -35%
C=CCc1ccc(OCc2ccc(C(=O)O)o2)c(OC)c1 | -4% | 10%
CCc1onc(C)c1C(=O)Nc1ccc(N2CCOCC2)cc1 | / | 9%
CC1=CC(C)C2(COC(=O)Nc3ccccc3)COC(C)C1C2C (stereo not given) | -13% | 2%
CCN(CC)CCOC(=O)c1cccc(Br)c1 | -5%[2.35 µM] | -4%
O=C(N/N=C/c1ccc([N+](=O)[O-])cc1)c1cc(C2CC2)[nH]n1 | -9% | -5%
O=S(=O)(c1cc(Cl)sc1Cl)N1CCCC1 | -14% | -14%
O=C(CC12CC3CC(CC(C3)C1)C2)NCC(=O)N1CCCC1 | 3% | -3%
Cn1cc(C=O)c2cc(S(=O)(=O)N3CCOCC3)ccc21 | 0% | 15%
O=C(Cn1cc(C(=O)c2ccco2)c2ccccc21)Nc1ccccc1F | 6% | ?
CCOc1cc(/C=N/NC(=O)c2ccncc2)ccc1OC(=O)c1ccco1 | -9% | -8%
CSc1ccc(/C=N/NC(=O)C[n+]2ccccc2)cc1 | -5% | -19%
O=C(O)C1CCN(C(=O)COc2ccc3c(c2)oc(=O)c2ccccc23)CC1 | 24% | 3%
CC1CCCCC1NS(=O)(=O)CCNC(=O)c1ccccc1 (stereo not given) | -7% | -6%
O=C(NCCC1=CCCCC1)c1ccc(F)c(S(=O)(=O)N2CCOCC2)c1 | 6% | -24%
Cc1cc(F)ccc1NC(=O)c1cc(S(=O)(=O)N2CCOCC2)cn1C | 1% | 1%
COc1ccc2ccc(=O)oc2c1CC(O)C(C)(C)O (stereo not given) | 9% | 2%
Fc1c(F)c(-n2nnc3ccccc32)c(F)c(F)c1Cl | 7% | 0%
COc1ccccc1-n1c(SCC(=O)Nc2cccc(C)c2)nc2c(c1=O)SCC2 | 26% | -7%
The list continues.
SMILES | N370S GC mod | TDP1 cell CPT
Nc1nc(-c2ccc(-n3nncc3-c3ccco3)cc2)cs1 | 22% | ?
Cc1ccc(NC(=O)C2CCN(S(=O)(=O)c3ccc4[nH]c(=O)oc4c3)CC2)cc1F | -12% | 9%
CCN(CC)c1ccc(/C=N/N2C(C)CCCC2C)c(O)c1 (stereo not given) | -1% | ?
CCOC(=O)Cn1c(=O)oc2cc(S(=O)(=O)NC(C)(C)CC)ccc21 | -4% | -10%
Cc1noc2ncnc(Oc3ccc(Cl)cc3Cl)c12 | -1% | 2%
COc1cccc(/C=C2\SC(=O)N(CCC(=O)NNC(=O)c3cccc(Cl)c3)C2=O)c1 | 1% | 19%
CCCCn1c(N)c(N(CCOC)C(=O)c2cc(=O)[nH]c3ccccc23)c(=O)[nH]c1=O | / | -5%
COc1cccc2c3c(c(=O)[nH]c12)CCC(C)(C)O3 | 12% | ?
CC(C)C[C@@H](CO)N1CCN(CC(C)C)CCC1=O | 3% | 4%&-2%&14%
Cc1ccc(C)c(N(CC(=O)NN=C2CCCCCCC2)S(C)(=O)=O)c1 | 0% | 1%
O=C(OCC(=O)N1CCc2ccccc2C1)c1ccc(Cl)c([N+](=O)[O-])c1 | / | -1%
Cc1ccc(NC(=O)COC(=O)c2cccc3c2C(=O)c2ccccc2C3=O)c(C)c1 | 10% | ?
COc1ccc(OC)c(N2C(=NC(=O)C3CCCCC3)SC3CS(=O)(=O)CC32)c1 (stereo not given) | -4% | -12%
O=C(CCC(=O)c1ccc(F)cc1)OC1CCOC1=O (stereo not given) | -25% | -4%
Nc1c(N(Cc2ccco2)C(=O)c2ccc(Br)cc2)c(=O)[nH]c(=O)n1Cc1ccccc1 | / | -21%
COc1ccc(NC(=O)CN2C(=O)C(C)Oc3ccccc32)c(OC)c1 (stereo not given) | -11% | -9%
O=C(Cn1nnc2c(cnn2-c2ccccc2)c1=O)NCc1cccs1 | 0% | ?
Cc1cccc(NNC(N)=S)c1 | 8% | ?
COC(=O)CCC/C=C1/SCC(NC(=O)c2ccccc2)C1NC(C)=O (stereo not given) | 3% | -20%
CCN(CC)C(=O)CC(c1cc(OC)c(OC)c(OC)c1)c1c(O)cc(OC)cc1OC (stereo not given) | -8%&-5% | -17%
O=C(CSc1nc2c(sc3ccccc32)c(=O)n1CCCN1CCCC1)NCc1ccco1 | 23% | 3%
Cc1cc(S(=O)(=O)NCC(C)C)ccc1OCC(=O)NCC1CCCO1 (stereo not given) | -3% | 2%
CN(C)CCCn1c(-c2ccccc2)nc(=S)c2c1CCCC2 | 2% | -4%
O=c1/c(=C\c2ccc(F)cc2)sc2n1CCCN=2 | 2% | ?
CC(=O)C1=C(c2ccccc2)NC(=O)NC1c1ccccc1OCC(=O)NCc1ccccc1 (stereo not given) | ? | -3%

Profiles as entered above.
`CCN(CC)C(=O)CC(c1cc(OC)c(OC)c(OC)c1)c1c(O)cc(OC)cc1OC` (stereo not given) as listed: N370S GC mod = -8%&-5%; TDP1 cell CPT = -17%
`O=C(CSc1nc2c(sc3ccccc32)c(=O)n1CCCN1CCCC1)NCc1ccco1` as listed: N370S GC mod = 23%; TDP1 cell CPT = 3%
`CCCCn1c(N)c(N(CCOC)C(=O)c2cc(=O)[nH]c3ccccc23)c(=O)[nH]c1=O` as listed: N370S GC mod = /; TDP1 cell CPT = -5%

Later entries
SMILES | N370S GC mod | TDP1 cell CPT
O=C(CC1SC(=O)N(Cc2ccc(Cl)cc2)C1=O)Nc1nccs1 (stereo not given) | 2% | 1%
CC1CN(C)C(C)C/C1=N/Oc1ccccc1[N+](=O)[O-] (stereo not given) | -5% | -26%
COc1ccc(C(=O)c2c[nH]c(C(=O)NCc3cccnc3)c2)cc1 | 1% | -27%
Cc1ccccc1NC(=O)Cn1c(NCC(C)O)nc2ccccc21 (stereo not given) | -1% | -17%
Cc1ccc(S(=O)(=O)CC(=O)Nc2cc(C)on2)cc1 | -2% | 0%
O=C(O)c1ccc2c(c1)C(=O)N(c1cccc(-c3nc4ccccc4s3)c1)C2=O | 8% | 0%
CC(=O)N1CCN=C1SCc1ccc(C(F)(F)F)cc1 | -25% | -2%
CN1CCN(C(=O)CCc2nnc3ccc(N4CCC5(CC4)OCCO5)nn23)CC1 | 1% | 8%
CC(C)N(Cc1nc(-c2ccc(Cl)cc2)no1)Cc1nccn1C | 6% | ?
O=C1OC(/C=C/c2ccc(Cl)cc2)=NC/1=C/c1ccco1 | -1% | -21%
COc1ccccc1NC(=O)C(=O)N(c1cccnc1)C(C(=O)NC(C)(C)C)c1ccccc1 (stereo not given) | 6% | 5%
Cc1ccc(C)c(N(C(=O)Cn2nnc3ccccc32)C(C(=O)NCc2ccco2)c2ccncc2)c1 (stereo not given) | -14% | -6%
CC(=O)CSc1ncnc2nc[nH]c12 | 6% | -5%
O=C(O)/C=C/C(=O)Nc1ccc(-n2nccc2C(F)(F)F)cc1 | 2% | 1%
CCSc1nnc(NC(=O)C2CC(=O)N(Cc3ccccc3)C2)s1 (stereo not given) | 12% | 2%
O=C(CSc1n[nH]c(=O)n1Cc1ccccc1)Nc1ccc(N2CCOCC2)cc1 | -9% | -14%
CC(=O)N1c2ccc(S(=O)(=O)NCC3CCC(C(=O)Nc4ccc(C)cn4)CC3)cc2CC1C (stereo not given) | -8% | ?
Cc1ccc(NC(=O)CCC(=O)c2cccs2)c(Br)c1 | -8% | 3%
CC(C)(C)NC(=O)CN(C(=O)CS(=O)CC(=O)Nc1ccc(F)cc1)c1ccc2c(c1)OCCO2 (stereo not given) | 3% | -17%
CN1CCN(CCc2nc3cc(NC(=O)c4ccco4)ccc3n2C)CC1 | -3% | 5%
CSc1ccc(CNCCCN(C)C)cc1 | 2% | ?
CCN1CCN(c2nc3sc4c(c3c(=O)n2-c2ccc(OC)cc2)CCCCC4)CC1 | -14% | ?
CCOc1ccc(/C(O)=C2/C(=O)C(=O)N(c3ccccn3)C2c2ccc(C)cc2)c(C)c1 (stereo not given) | -12% | -22%
COc1cc(OC)c(N(C)S(=O)(=O)c2cccc(C(=O)NC(C)C3CC4CCC3C4)c2)cc1Cl (stereo not given) | 4% | 18µM*
O=C(COC(=O)CNC(=O)C1CCCCC1)Nc1ccccc1 | / | -29%

Five structures out of the list, ordered by formula weight, descending.
SMILES | N370S GC mod | TDP1 cell CPT
Cc1ccc(NC(=O)C2CCN(S(=O)(=O)c3ccc4[nH]c(=O)oc4c3)CC2)cc1F | -12% | 9%
O=C(NCc1ccco1)C1CCCN(c2ncnc3c2nc2n3CCCCC2)C1 (stereo not given) | 15% | ?
CCSc1nnc(NC(=O)C2CC(=O)N(Cc3ccccc3)C2)s1 (stereo not given) | 12% | 2%
CC(C)N(Cc1nc(-c2ccc(Cl)cc2)no1)Cc1nccn1C | 6% | ?
COc1cc(CO)cc(Br)c1OCc1cccnc1 | -4% | -1%

Next part.
SMILES | N370S GC mod | TDP1 cell CPT
CC(C)c1ccc(NC(=S)NNC(=O)c2cccnc2)cc1 | -2% | 2%
O=C(CCn1c(=S)[nH]c2ccccc2c1=O)NCCCN1CCCC1=O | 1% | 4%
CN(C)CCCN1C(=O)CSC1c1ccc([N+](=O)[O-])cc1 (stereo not given) | -14% | 9%
N#Cc1nc(-c2ccccc2F)oc1NC1CCCCC1 | 8% | -9%
Cc1cccc(C(=O)NCc2nnc(SCC(=O)N3CCN(c4ccccc4)CC3)n2C)c1 | / | 4%
O=C(NCCCN1CCN(CCCNC(=O)c2ccccc2F)CC1)c1ccccc1F | -2% | ?
CCSc1nc2c(c(=O)n1Cc1ccccc1)SC(C)C2 (stereo not given) | ? | 12µM*
O=C(O)Cc1c(-c2ccccc2Cl)c2cc(Br)ccc2[nH]c1=O | -2% | ?
Cc1ccc(C(C)NC(=O)c2cc3cc(Br)ccc3oc2=N)cc1 (stereo not given) | 2% | 23µM*
COc1ccc(CCNc2nc3c(c(=O)n(C)c(=O)n3C)n2C)cc1OC | -10% | -22%
O=C(NC(=S)NC1CCSC1=O)c1ccccc1F (stereo not given) | -4% | 6%
COc1ccc(CC(=O)Nc2cccc(-c3cn4ccccc4n3)c2)cc1 | -16% | ?
C=CCNC(=O)CN1c2cccc3cccc(c23)S1(=O)=O | 2% | -9%
COc1ccc(CC(=O)NC(C)c2ccc3ccccc3c2)cc1 (stereo not given) | -4% | -12%
CCOC(=O)N1CCN(c2c(N3CCN(c4ccc(OC)cc4)CC3)c(=O)c2=O)CC1 | -2% | -20%
O=C(Nc1nc(-c2ccc(F)c(F)c2)cs1)c1cc([N+](=O)[O-])ccc1N1CCOCC1 | 1% | -27%
Fc1ccc(/C=N/Nc2nnnn2-c2ccccc2)cc1 | 5% | 2%
O=C(c1nsnc1-c1ccccc1O)N1CCCCC1 | 4% | -10%
Cn1c(=O)oc2cc(S(=O)(=O)N3CCN(c4ccc(F)cc4)CC3)ccc21 | 18% | -82%
COc1ccc(OCc2nc(C#N)c(N3CCN(c4ccc(OC)cc4)CC3)o2)cc1 | 9% | ?
O=C(/C=C/c1ccccc1Cl)N(Cc1ccc(Cl)cc1)C1CCS(=O)(=O)C1 (stereo not given) | 6% | ?
N#C/C(=C\c1ccc(OCC(N)=O)cc1)S(=O)(=O)c1ccccc1 | -2% | 1%
Cc1cc(C)c(S(C)(=O)=O)c(N(C)N)n1 | 0% | -2%
Cc1noc(C)c1CSc1nnc2ccc3ccccc3n12 | -2% | -13%
Nc1nnc(Cc2ccc(Cl)cc2Cl)s1 | 23% | -19%
Later entries:
SMILES | N370S GC mod | TDP1 cell CPT
CSc1cc(C)nc(N(C)C(C)=O)n1 | -3% | -19%
NNc1nnnc2c1sc1nc(N3CCOCC3)c3c(c12)CCCC3 | 0% | ?
COc1ccc(N2CCCCn3c2nc2c3c(=O)n(C)c(=O)n2C)cc1 | -4% | -9%
CCCCC(=O)NCCNc1nc2c(c(=O)n(C)c(=O)n2C)n1Cc1ccccc1 | -1% | ?
CC12CCC(C(=O)N(CCCN3CCN(Cc4ccccc4)CC3)C1=O)C2(C)C (stereo not given) | 11% | 12%
COc1ccccc1N1CCN(C(CNS(=O)(=O)c2cccs2)c2cccnc2)CC1 (stereo not given) | -6% | ?
COc1ccc(/C=N/Nc2ccc(C(F)(F)F)cc2[N+](=O)[O-])cc1O | 13% | -27%
Cc1ccc(CNC(=O)CN2CCC(C(N)=O)CC2)cc1 | -3% | -10%
CC(C)(C)c1ccc(C(=O)NNC(=S)NC(=O)c2cccnc2)cc1 | -4% | 7.3µM*

Quoted at random: 4 records from the list
SMILES | N370S GC mod | TDP1 cell CPT
CCCCC(=O)NCCNc1nc2c(c(=O)n(C)c(=O)n2C)n1Cc1ccccc1 | -1% | ?
COc1ccc(N2CCCCn3c2nc2c3c(=O)n(C)c(=O)n2C)cc1 | -4% | -9%
Cc1ccc(CNC(=O)CN2CCC(C(N)=O)CC2)cc1 | -3% | -10%
CSc1cc(C)nc(N(C)C(C)=O)n1 | -3% | -19%

Not all compounds are listed, and most or all hits are left out here.
